Bioassay records (PubChem)
2A StopGo = lowers the luciferase signal of an FMDV 2A StopGo reporter; human cells with a luciferase reporter of 2A StopGo recoding; control for the full effect not named in the record; Potency, µM (series often up to 57.9 µM), inactives show top-dose signal change, negative = less light; AID 1159524; actives 1.2% (n = 410,000); active = well fitted falling curve with a large enough effect; inconclusive = small, poorly fitted or top-dose-only effect; inactive = no such curve, though single readings can be large or run the other way; tested in HEK293T cells; note: % is set by controls: 0 for no effect and ±100 for the full control effect; nearly all actives have a fitted effect of over 45% in size; luciferase light after 4 h
Cruzain Triton = cruzain (T. cruzi) inhibition with detergent | P25779 | purified cruzain, Z-FR-AMC fluorescence, 0.01% Triton | Potency, µM, for the others: max response, negative = inhibition, actives largely listed as inhibitors | actives 0.43% (n = 200,000) | AID 1478; active = well fitted curve in the direction sought with a large enough effect; inconclusive = small, poorly fitted or top-dose-only effect, or another doubt; inactive = no such curve, though single readings can be large; an effect the other way counts as inactive or inconclusive;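 note: plate controls were neutral wells for no effect and buffer without enzyme for full effect; nearly all actives have a fitted effect of over 40% in size; top concentration of the series not given in the record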
Target sequence (P25779 123-467 limits assumed): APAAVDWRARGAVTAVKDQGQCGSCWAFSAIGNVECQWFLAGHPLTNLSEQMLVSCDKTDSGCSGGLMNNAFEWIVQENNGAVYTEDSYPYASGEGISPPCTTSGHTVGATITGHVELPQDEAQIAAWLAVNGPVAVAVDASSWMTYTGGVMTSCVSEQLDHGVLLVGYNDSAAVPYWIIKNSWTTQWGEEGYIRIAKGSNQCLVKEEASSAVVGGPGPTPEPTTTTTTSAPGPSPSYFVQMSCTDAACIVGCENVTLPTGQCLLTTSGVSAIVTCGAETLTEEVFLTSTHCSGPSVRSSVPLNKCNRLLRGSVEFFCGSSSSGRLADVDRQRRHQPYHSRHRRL
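Sodium acetate buffer (100 mM, pH 5.5) containing 5 mM DTT and 0.01% Triton X-100 hosted 1.5 nM cruzain and test compound for 15 min at room temperature. Cleavage of 2 uM Z-FR-AMC was then tracked by fluorescence.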
NS1 inh = inhibitors of influenza NS1 protein function; AID 2326; S. cerevisiae slowed by influenza A NS1, growth recovery by OD600; Potency, µM (top dose mostly 46.1 µM), for the others: at the highest dose activity, positive = more growth; actives 0.4% (n = 270,000); note: actives are rising curves; nearly all actives have a fitted effect of over 50% in size
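Compounds were scored for reversing the slow growth caused by influenza A NS1 in S. cerevisiae, measured by optical density at 600 nm. Assay medium contained 2% galactose at pH 6.0; NS1-free yeast of the same strain were the positive control.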
SARS PLP yeast = inhibitors of SARS-CoV papain-like protease in yeast; S. cerevisiae expressing SARS-CoV PLpro, growth rescue; control for the full effect not named in the record; Potency, µM (top dose mostly 32.9 µM), for the others: at the highest dose activity, positive = growth rescue; actives 0.19% (n = 330,000); note: 0% is about no effect; nearly all actives have a fitted effect of over 55% in size; growth read by luminescence after 48 h
Cruzain inh noDet = cruzain (T. cruzi) inhibition without detergent; purified cruzain, Z-FR-AMC fluorescence, no detergent; P25779; actives 2.3% (n = 200,000); AID 1476; Potency, µM, inactives show max response, negative = inhibition, actives largely listed as inhibitors; active = well fitted curve in the direction sought with a large enough effect; inconclusive = small, poorly fitted or top-dose-only effect, or another doubt; inactive = no such curve, though single readings can be large; an effect the other way counts as inactive or inconclusive;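 note: plate controls were enzyme without inhibitor for no effect and buffer without enzyme for full effect; nearly all actives have a fitted effect of over 40% in size; top concentration of the series not given in the record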
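Purified cruzain at 1.5 nM, pre-incubated 15 min with compound at room temperature in 100 mM sodium acetate pH 5.5, 5 mM DTT, 0.00005% Triton X-100. Reaction started with 2 uM Z-FR-AMC; AMC fluorescence increase over 60 s gives rate.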
RE007 growth inh = less growth of the S. pombe RE007 Vpr strain; S. pombe RE007 Vpr strain, BacTiter-Glo ATP luminescence, 24 h; control for the full effect not named in the record; Potency, µM (series often up to 92.2 µM), for inactives: at the highest dose activity change, negative = less growth; actives 0.21% (n = 360,000); active = well fitted falling curve with a large enough effect; inconclusive = small, poorly fitted or top-dose-only effect; inactive = no such curve, though single readings can be large or run the other way;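 note: % is set by controls: 0 for no effect and ±100 for the full control effect; nearly all actives have a fitted effect of over 50% in size; the assay follows cell death caused by Vpr and the record does not say whether a fall means rescue or toxicity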
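Fission yeast strain RE007, carrying one chromosomally integrated HIV-1 vpr copy, was seeded at OD 0.01 in PMG+AL medium with 23 nL pinned compound. After 24 h at 30 °C and 99% humidity, viability was read by BacTiter-Glo luminescence.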
Lassa entry inh = Lassa virus entry inhibition | Lassa virus pseudotype entry inhibition, cell reporter; control for the full effect not named in the record | Potency, µM (titrated, usually from 37.9 µM), for inactives: top-dose activity change, negative = inhibition, most hits filed as inhibitors | actives 1.2% (n = 300,000); active means well fitted inhibition curve with a large enough effect; inconclusive means small, poorly fitted or top-dose-only effect, or effect the other way; inactive means flat fitted curve, though single readings scatter; tested in HEK293 cells; note: % is set by controls: 0 for no effect and ±100 for the full control effect; nearly all actives have a fitted effect of over 50% in size; luciferase read-out
MARV entry inh = Marburg virus entry inhibition; Marburg virus pseudotyped entry inhibition, cell reporter; control for the full effect not named in the record; about a third of the inactives were read at about 46 µM; Potency, µM (doses to about 37.8 µM), without a hit: at the highest dose activity change, negative = inhibition, usual class: inhibitors; actives 1.8% (n = 300,000); active = well fitted inhibition curve with a large enough effect; inconclusive = small, poorly fitted or top-dose-only effect, or effect the other way; inactive = flat fitted curve, though single readings scatter; tested in HEK293 cells; about a fifth of its hits are not listed in these tables; note: % is set by controls: 0 for no effect and ±100 for the full control effect; luciferase read-out
* = called active by the depositor; ? = inconclusive; nt = not tested or not shown; & = joins results of further samples; [ ] = remark or other dose. Unless noted, calls come from the whole dose curve; as a rule, active means well fitted rising curve with a large enough effect; inconclusive means small, poorly fitted or top-dose-only effect; inactive means no such curve, though single readings can be large or run the other way. Potency is the fitted concentration of half-maximal effect.

SMILES	2A StopGo	Cruzain Triton	NS1 inh	SARS PLP yeast	Cruzain inh noDet	RE007 growth inh	Lassa entry inh	MARV entry inh
Cc1ccc(NC(=O)C(C)NS(=O)(=O)c2ccc(F)cc2)cc1C (stereo not given)	-11%	nt	-1%	1%	nt	2%	-20%[46.1 µM]	10%[46.1 µM]
Cc1ccc(NC(=O)c2sc3nc4n(c(=O)c3c2C)CCCCC4)c(Br)c1	-8%	-1.2%	nt	nt	7%	nt	11%[46.1 µM]	nt
Cn1c(=O)n(-c2ccc(F)c(Cl)c2)c(=O)c2sc3ccccc3c21	4%	0.0%	nt	nt	-9%	nt	2%[46.1 µM]	-7%[46.1 µM]
COc1cccc(-c2nc(NCC3CCCO3)c3ccccc3n2)c1O (stereo not given)	18µM*	-4.9%	7%	-10%	5%	22%	?	?
CCN(C(=O)COC(=O)/C=C/c1c(C)nn(Cc2ccc(C)cc2)c1C)C1CCS(=O)(=O)C1 (stereo not given)	?	nt	nt	-7%	nt	0%	3%	-5%[14.2 µM]
O=C1c2ccccc2C(=O)c2c1ccc1c(=O)n(-c3ccccc3)[nH]c21	-23%	-1.5%	3%	-18%	-21%	-11%	8%	-18%
CCN(CC)C(=O)CSc1nnc(-c2cc(OC)cc(OC)c2)o1	28%	2.8%	-8%	-5%	3%	1%	?	-28%
CC(=O)CC1(O)C(=O)N(CN2CCN(c3ccccc3)CC2)c2ccccc21 (stereo not given)	nt	2.1%	15%	3%	-2%	-14%	-2%	4%
O=S(=O)(c1ccc(Cl)cc1)c1cnc(-c2cccnc2)nc1-c1ccccc1	-16%	11%	9%	4%	-18%	7%	-5%	-17%
CCCCCc1c(C)nc(N2CCOCC2)[nH]c1=O	11%	3.6%	-10%	3%	2%	2%	6%	16%
Cc1cccc2cc(COC(=O)c3ccccc3)c(=O)[nH]c12	-14%	-2.7%	-1%	-7%	-10%	21%	3%	3%
Cc1cc(C)c2nc(SCC(=O)NCCC3=CCCCC3)cc(C)c2c1	0%	-11%	-4%	11%	6%	3%	-2%	14%
CCOP(=O)(Cc1cc(C(=O)CC)c(C)o1)OCC	-10%	nt	1%	-1%	nt	14%	nt	nt
CC(Sc1nc2ccccc2c(=O)n1Cc1ccco1)C(=O)c1ccccc1 (stereo not given)	9%	-0.4%	-55%	5%	-9%	-2%	4.1µM*	6%
Cc1ccc(C(=O)N2CCCC(Nc3ccc(F)c(F)c3)C2)cn1 (stereo not given)	-25%	nt	6%	0%	nt	19%	nt	nt
CC(=O)N(O)CCCCCNC(=O)CCC(=O)N(O)CCCCCNC(=O)CCC(=O)N(O)CCCCCN	-4%&-1%&0%	2.7%&-5.1%&1.5%	-10%	22%	5%&-5%&-1%	-23%&-17%	?	-45%&-45%&-45%&-45%&-45%&-45%&-45%
CCc1ccc(NC(=O)c2ccc3c(O)c(S(=O)(=O)c4ccccc4)c(=O)[nH]c3c2)cc1	-17%	-4.0%	nt	nt	-10%	nt	1%[46.1 µM]	nt
C/C(N)=C(/C#N)C(=O)CSc1nc2ccccc2c(=O)n1CCCO	-6%	-3.4%	-11%	0%	-10%	9%	?	?
COC(=O)c1cc(C#N)c(N2CCOCC2)nc1C	4%	nt	-4%	1%	nt	-4%	6%	-7%
Cc1cc(C)nc(NS(=O)(=O)c2ccc(NC(=O)Cc3ccc(F)cc3)cc2)n1	43%[activator]	nt	0%	-1%	nt	16%	nt	nt
COc1ccc(C(C)=O)cc1CSc1nnc(Nc2ccc(C)cc2C)s1	0%	-5.3%	2%	-38%	-23%	-1%	?	?
O=C(CCCSc1nc2ccccc2[nH]1)NC1=NCCS1	-17%	-1.0%	5%	8%	-14%	-13%	-3%	7%[46.1 µM]
C/C(=N\NC(=S)Nc1ccccc1C)c1ccc(O)cc1	13%	nt	0%	25%	nt	4%	5%	-8%[46.1 µM]
CCOC(=O)CN1CCS(=O)(=O)CC1	-2%	nt	0%	0%	nt	2%	20%[46.1 µM]	6%[46.1 µM]
CCn1cc(C(=O)N[C@H](C(=O)NCCN2CCOCC2)C(C)C)c(=O)c2cc3c(cc21)OCO3	2%	nt	5%	1%	nt	8%	3%[46.1 µM]	-19%[46.1 µM]

Further entries follow.
SMILES	2A StopGo	Cruzain Triton	NS1 inh	SARS PLP yeast	Cruzain inh noDet	RE007 growth inh	Lassa entry inh	MARV entry inh
O=C(Nc1ccccc1)N(Cc1ccccc1)CC(O)C(F)(F)F (stereo not given)	-25%	0.7%	2%	4%	-6%	10%	?	?
CC(CCc1ccccc1)NC(=O)C1CCN(S(=O)(=O)c2ccc(F)cc2)CC1 (stereo not given)	0%	nt	-30%	2%	nt	10%	nt	nt
COc1ccc(-c2ccc(SC)nn2)cc1	-70%	nt	nt	-23%	nt	?	3.5µM*	?
COC(=O)c1scc(C)c1N/N=C(\C)c1cc(F)c(Cl)cc1F	44%[activator]	4.5%	-2%	-3%	?	2%	22%	-3%
O=C(NNC(=O)c1cccc2ccccc12)c1ccc(Cl)cc1Cl	13%	nt	nt	nt	nt	-5%	24%[46.1 µM]	-7%[46.1 µM]
O=C(NCCCN1CCOCC1)c1cccnc1	-17%	-2.8%	15%	15%	-6%	2%	11%	2%
COc1ccc(/C=N\NC(=O)CC(=O)Nc2cccc(Cl)c2)cc1OC	14%	nt	nt	2%	nt	-13%	-2%[46.1 µM]	-3%[46.1 µM]
CCN1CCN(c2ccc(S(=O)(=O)N3CCCCC3)cc2NC(=O)Cc2ccccc2)CC1	-18%	nt	nt	1%	nt	0%	4%	1%
CCn1c(CNc2ccc(C)cc2C)nnc1SCC(=O)N1CCCc2ccccc21	-13%	-0.9%	-4%	-14%	19%	-4%	-25%	?
Cc1nc2ccccc2c2oc(C(=O)NCCCN3CCCC(C)C3)cc12 (stereo not given)	-7%	nt	-8%	5%	nt	-6%	nt	nt
Cc1ccc(OCC(=O)NNC(=O)C(=O)N2CCCC2)c(C)c1	-9%	-2.0%	9%	17%	12%	-8%	4%	24%
Cc1ccc(-c2nnc(-n3ncc(C#N)c3N)c3ccccc23)cc1C	-27%	-7.1%	-2%	17%	-12%	4%	-1%	23%[46.1 µM]
CCn1nc(NC(=O)c2ccccn2)c2cc3cc(C)ccc3nc21	-3%	-8.6%	-51%	5%	?	-3%	10%	-11%
CCCc1nnc2c(N(C)S(=O)(=O)c3ccccc3)nc3ccccc3n12	-25%	-1.2%	8%	1%	-1%	5%	17%	?
COc1ccc(NC(=O)CNC(=O)CC23CC4CC(CC(C4)C2)C3)c(OC)c1	-15%	nt	nt	-1%	nt	1%	1%	?
O=C(Nc1nc(-c2ccccc2)cs1)c1ccc2c(c1)S(=O)(=O)c1ccccc1C2=O	-10%	-4.5%	0%	-2%	?	-13%	5%	-2%
CCCCn1c(N)c(N(CC(C)C)C(=O)CSCC(=O)Nc2ccc(OC)cc2)c(=O)[nH]c1=O	-17%	nt	nt	2%	nt	1%	1%[46.1 µM]	-13%
CCOc1ccccc1N1CCN(C(=O)c2cc3c(s2)CCC3)CC1	-1%	-7.1%	-66%	-8%	0%	7%	-22%	?
O=C(OCCN1C(=O)c2ccccc2C1=O)c1cc(=O)[nH]c2ccccc12	?	5.4%	-10%	-1%	5%	0%	5%	-19%
CCc1ccccc1NS(=O)(=O)c1ccc2[nH]cc(C(=O)NC3CCCC3)c(=O)c2c1	?	-11%&-6.6%	0%	-2%	-6%&-11%	2%	?	?
Cc1ccc(NC(=O)N2CCCC2C(=O)NCc2ccc(Cl)cc2)cc1 (stereo not given)	38%[activator]	nt	-1%	0%	nt	1%	nt	nt
Cc1ccc(C)c(CN2CCC(CNC(=O)CCc3nnc4ccc(N5CCCCC5)nn34)CC2)c1	-16%	nt	-3%	0%	nt	-15%	nt	nt
CCC(c1nnnn1CCOC)N(Cc1cc2cc(C)c(C)cc2[nH]c1=O)CC1CCCO1 (stereo not given)	-5%	-0.1%	-10%	-1%	10%	17%	?	?
O=C(CNc1ccccc1)Nc1cccc2ccccc12	20%	nt	5%	-1%	nt	-2%	-7%	?
COC(=O)CCC(=O)N1CCCC(C(=O)c2ccc(Cl)cc2C)C1 (stereo not given)	2%	nt	-12%	4%	nt	-3%	?	6%

Next section.
SMILES	2A StopGo	Cruzain Triton	NS1 inh	SARS PLP yeast	Cruzain inh noDet	RE007 growth inh	Lassa entry inh	MARV entry inh
COc1cc(NS(=O)(=O)c2ccc(Br)s2)cc(OC)c1	18%	-12%	-55%	-5%	-15%	1%	0%	-23%
Cc1oc(-c2ccc(Cl)cc2)nc1CS(=O)CC(=O)NCCCN1CCOCC1 (stereo not given)	-5%	nt	6%	?	nt	0%	nt	nt
COc1nc(C)nc2c1sc1nc3c(cc12)COC(C)(C)C3	8%	-1.4%	1%	-1%	-11%	3%	-17%	?
O=C(NCc1cccnc1)c1cn(-c2ccccc2)nc1-c1ccccc1	33%[activator]	nt	nt	2%	nt	9%	-7%	11%[14.2 µM]
Cc1cc(C)n(-c2nc3ccccc3c(=O)n2OCC(N)=O)n1	6%	-0.2%	-14%	-2%	-12%	6%	5%	-5%
Cc1ccc(-n2c(SCC(=O)Nc3ncc(Cl)cc3Cl)nc3ccccc32)cc1	-29%	0.1%	-10%	-52%	20µM*	8%	0.29µM*	?
Cc1cc(C)c(C#N)c(SC(F)F)n1	0%	3.0%	-1%	4%	-14%	15%	?	6%
COc1ccccc1NC(=O)CSc1oc(-c2cccs2)nc1S(=O)(=O)c1ccc(Br)cc1	9%	-9.6%	nt	nt	-9%	nt	25%[46.1 µM]	1%[46.1 µM]
Cc1cc(C)cc(OC(C)C(=O)NCCCn2ccnc2)c1 (stereo not given)	-15%	nt	4%	-2%	nt	0%	16%	-5%[46.1 µM]
COC(=O)c1ccccc1NC(=O)NC1CCCCC1	30%[activator]	nt	-1%	1%	nt	4%	nt	nt
CCOc1ccc(N2CC(C(=O)Nc3ccncc3)CC2=O)cc1 (stereo not given)	32%	nt	2%	-2%	nt	-9%	?	-3%[46.1 µM]
COc1cccc(C(=O)CC(C#N)c2ccc(F)cc2)c1 (stereo not given)	7%	nt	-2%	-1%	nt	14%	?	5%[46.1 µM]
COC(=O)C(C(=O)Nc1nc2ccccc2s1)C1CCCC1 (stereo not given)	2%	nt	-2%	0%	nt	-3%	nt	nt
CN1CCc2c(OCC(=O)N3CCC(Cc4ccccc4)CC3)cccc2C1=O	?	nt	nt	-7%	nt	-9%	?	-33%[46.1 µM]
